NPYLR7 agonist: activates Aedes aegypti NPYLR7 receptor; 270,000 compounds, 0.15% hits; activation, % at 10 µM; AID 1259423; HEK293T NPYLR7/Galpha15, GCaMP6s calcium fluorescence; in the data active means activation above about 40%;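 further: 0% = vehicle and 100% = reference agonist at the receptor; some compounds past the cut are filed as inactive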
NPYLR7 agonist max-min: recorded beside NPYLR7 agonist, whose call it bears; activation, %; measured here: Max-Min RFU normalised activation; some inactives read as strong as hits;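 span of the calcium signal over five minutes; 0% = vehicle and 100% = native peptide agonist; compound fluorescence can raise it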
Starred values were filed as active, the others as inactive; & = joins results of further samples. The list is partial, so the mix of outcomes need not match the whole.

SMILES | NPYLR7 agonist | NPYLR7 agonist max-min
Cc1c(N2C(=O)/C(=C\c3cccs3)SC2=S)c(=O)n(-c2ccccc2)n1C | 0 | -5
COc1ccc(CNC(=O)C2=Cc3ccccc3OC2)cc1 | 3 | 1
COc1cccc(-c2cnc(-c3ccc(CNC(=O)c4cc(F)cc(C(F)(F)F)c4)cc3)[nH]2)c1 | 3 | 2
O=C(CSc1nc(=O)n(CCCO)c2c1CCC2)NC1CCCC1 | -11 | -17
COc1ccccc1OCc1cc(C(=O)N2CCc3nnc(C)n3CC2)n[nH]1 | 2 | 0
COC(=O)c1cc(OC)c(OC)cc1NCc1cc(=O)oc2cc(-c3ccccc3)c(O)cc12 | 2 | 0
CCC(Oc1ccccc1C#N)C(=O)Nc1cc(C)on1 (centres undefined) | 1 | -1
Fc1cc(F)c(C2c3cccn3CCCN2Cc2cccc(Cl)c2)cc1F (centres undefined) | 17 | 20
COCCn1c(N2CCN(Cc3ccccc3)CC2)nc2c1c(=O)[nH]c(=O)n2C | 12 | 5
COC(C)(C)c1noc(C2CCOc3ccccc32)n1 (centres undefined) | -1 | -3
O=C(Nc1cnc(C2CC2)nc1)c1ccc(-c2nc(C3CC3)no2)cc1 | 6 | 4
CN1CC2(CCCN(C(=O)CCc3nc4ccccc4s3)CC2)OC1=O (centres undefined) | 8 | 7
CS(=O)(=O)N1CCN(c2ccccc2[N+](=O)[O-])CC1 | 13 | 4
CCc1ccc(-c2csc(NC(=O)C3=NN(C)C(=O)CC3)n2)cc1 | 10 | 11
Cn1nc(Oc2ccc(-c3ccccc3)cc2)c(=O)n(C)c1=O | 1 | 20
O=C(CSc1nc2[nH]ncc2c(=O)[nH]1)N1CCCc2ccccc21 | -1 | -3
COc1ccc2c(C)c(-c3ccccc3)c(=O)oc2c1 | -5 | -11
O=C(O)c1ccc2c(c1)C(=O)N(Nc1ccccc1[N+](=O)[O-])C2=O | -3 | -5
O=C(c1cccs1)N1CCCC(N2CCN(c3ccccc3F)CC2)C1 (centres undefined) | -4 | 1
c1ccc2[nH]c(-c3nnco3)cc2c1 | -4 | -1
COc1ccccc1-n1cc(C(=O)NCc2cnc(C)cn2)cn1 | 22 | 17
COc1cc(-n2cnc3cnc(-c4cccc(C(N)=O)c4)cc32)cc(OC)c1OC | -16 | -15
O=C(O)COc1ccc(/C=C2\C(=O)NC(=S)N(c3ccc(F)cc3)C2=O)cc1Br | 0 | -5
Cc1cccc(-n2c(-c3ccc(Cl)cc3)cc(C(=O)N3CCN(c4ccccc4C)CC3)c2C)c1 | 24 | 17
CCN(CC)S(=O)(=O)c1ccc(OC)c(N2CCN(C(=O)c3cc(Cl)cc(Cl)c3)CC2)c1 | 24 | 30

Three entries already listed, sorted by SMILES length, largest number first:
SMILES | NPYLR7 agonist | NPYLR7 agonist max-min
O=C(O)c1ccc2c(c1)C(=O)N(Nc1ccccc1[N+](=O)[O-])C2=O | -3 | -5
CS(=O)(=O)N1CCN(c2ccccc2[N+](=O)[O-])CC1 | 13 | 4
c1ccc2[nH]c(-c3nnco3)cc2c1 | -4 | -1

An excerpt of these results, as tab-separated lines.
mol	NPYLR7 agonist	NPYLR7 agonist max-min
CS(=O)(=O)N1CCN(c2ccccc2[N+](=O)[O-])CC1	13	4
COc1ccccc1-n1cc(C(=O)NCc2cnc(C)cn2)cn1	22	17
CCC(Oc1ccccc1C#N)C(=O)Nc1cc(C)on1 (centres undefined)	1	-1
Cc1c(N2C(=O)/C(=C\c3cccs3)SC2=S)c(=O)n(-c2ccccc2)n1C	0	-5

Filtered by structure: the compounds so far containing fluorine
SMILES | NPYLR7 agonist | NPYLR7 agonist max-min
COc1cccc(-c2cnc(-c3ccc(CNC(=O)c4cc(F)cc(C(F)(F)F)c4)cc3)[nH]2)c1 | 3 | 2
Fc1cc(F)c(C2c3cccn3CCCN2Cc2cccc(Cl)c2)cc1F (centres undefined) | 17 | 20
O=C(c1cccs1)N1CCCC(N2CCN(c3ccccc3F)CC2)C1 (centres undefined) | -4 | 1
O=C(O)COc1ccc(/C=C2\C(=O)NC(=S)N(c3ccc(F)cc3)C2=O)cc1Br | 0 | -5

Later entries
SMILES | NPYLR7 agonist | NPYLR7 agonist max-min
O=C(CN(C(=O)/C=C/c1ccccc1)C1CC1)N1CC(=O)N(c2ccc(Cl)cc2)C1 | 0 | 8
CC(C)c1nc(CN(C)c2cc(N(C)C)ncn2)cs1 | -1 | -10
CC1CN(Cc2cc(=O)n3c4c(sc3n2)CCCC4)CC(C)O1 (centres undefined) | -2 | -1
Cc1ccc2nc(-c3cccc(F)c3)c(NC(C)(C)CC(C)(C)C)n2c1 | -8 | 3
CC(C)NCC(=O)Nc1cc(N2CCN(C(=O)NC(C)C)CC2)ccc1Cl | 21 | 10
CC1=C(C(=O)N2CCC(C(=O)Nc3ccc(-c4cccc(C)c4)cc3)CC2)OCCO1 | -3&22 | -5&23
CCN(CC)S(=O)(=O)c1ccc(S(=O)(=O)Nc2cccc(Cl)c2C)cc1 | 4 | 2
C=CCN1C(=O)C(C(=O)Nc2cccc(C)c2)C2CC1(C)Oc1ccccc12 (centres undefined) | 0 | 0
COC(=O)N1CCCC(NC(=O)N2CCC(c3ccccc3)CC2)C1 (centres undefined) | 6 | 5
O=C(CSc1cn(CC(=O)N2CCCCCC2)c2ccccc12)NC1CCCCC1 | 15 | 20
CCOc1ccc(C2=C(C(=O)CC)Sc3nnc(Cc4ccc(OC)cc4)n3N2C(=O)CC)cc1 | -2 | -4
O=S(=O)(c1c(Cl)cccc1Cl)N1CCN(Cc2ncc(-c3ccccc3)o2)CC1 | -1 | -2
COC(=O)C1CN(C(=O)C2CCC(CNC(=O)OC(C)(C)C)CC2)CCC1=O (centres undefined) | 16 | 0
COc1cc(OC)c(CNC(=O)c2c(C)noc2-c2cc(OC)c(OC)c(OC)c2)c(OC)c1 | 0 | 0
Cc1ccccc1-n1nc(C(C)(C)C)cc1NC(=O)C(Cc1ccccc1)NC(=O)c1ccc(Br)cc1 (centres undefined) | -2 | 6
COc1ccc(N2C(=O)C3N=NN(Cc4cc(C)ccc4C)C3C2=O)cc1OC (centres undefined) | -2 | -6
CN1CCC(N[C@H]2CC(C)(C)[C@@H]3C[C@@](C)(O)CC[C@]23CCC(=O)NCCN2CCOCC2)CC1 | -11 | -13
O=C(CC12CC3CC(CC(C3)C1)C2)Nc1ncccc1O | -9 | -10
COc1cc2c(cc1OC)C(c1cccs1)N(C(=O)CNC(=O)C1CCOCC1)CC2 (centres undefined) | 10 | 7
Cc1cccc(C)c1OCC(=O)NNS(=O)(=O)c1ccc2c(c1)OCCCO2 | -3 | -3
Cc1ccc(C(=O)c2c(N)c(C(=O)Nc3ccccc3C)c3ccccn23)cc1 | -5 | -9
CCc1nc(C)c(C(C)N(C)CCOC)s1 (centres undefined) | -5 | -9
O=C(Nc1cc(-n2cccc2)ccc1F)c1n[nH]c(=O)c2ccccc12 | -1 | -2
CC(C)NC(=S)NN=Cc1sc(N2CCCCC2)nc1-c1cccs1 | -11 | -19
CCCC(O)CN(Cc1nc2scc(-c3ccc(OC)cc3)c2c(=O)[nH]1)Cc1ccco1 (centres undefined) | 12 | 17

A few values from above:
CCN(CC)S(=O)(=O)c1ccc(S(=O)(=O)Nc2cccc(Cl)c2C)cc1 in NPYLR7 agonist shows 4
O=C(Nc1cc(-n2cccc2)ccc1F)c1n[nH]c(=O)c2ccccc12 in NPYLR7 agonist shows -1
CC(C)c1nc(CN(C)c2cc(N(C)C)ncn2)cs1 in NPYLR7 agonist max-min shows -10
CC(C)NC(=S)NN=Cc1sc(N2CCCCC2)nc1-c1cccs1 in NPYLR7 agonist shows -11

(cont.)
SMILES | NPYLR7 agonist | NPYLR7 agonist max-min
CCCc1nnc2c(C(=O)N[C@@H]3CCCc4ccccc43)cccn12 | -5 | -7
Cc1ccc2cc(CN(Cc3nccn3C)C3CC3)c(=O)[nH]c2c1 | 12 | 9
CC(C)CNC(=O)C(NC(=O)CC(C)C)C1CCN(C(=O)c2ccc3c(c2)OCO3)CC1 (centres undefined) | -2 | 5
Cc1cnc(C)c(N(C)C)n1 | 6 | 10
CCCOc1ccccc1NC(N)=Nc1nc(C)cc(C)n1 | -4 | -9
Cc1[nH]c(=S)[nH]c(=O)c1CCC(=O)N1CCOCC1 | 7 | 3
CCCOc1ccc(Oc2ncccc2CN)cc1 | -7 | -7
c1ccc2c(c1)c(-n1ccnc1)nn1nnnc21 | -6 | -7
Cc1sc2nc(C(C)Sc3nnc(C)n3C3CC3)[nH]c(=O)c2c1C (centres undefined) | -2 | -3
CN1CCC(Cc2noc(-c3cccc(-c4cn[nH]c4)c3)n2)CC1 | 0 | -4
Cc1oc(-c2ccccc2)nc1COC(=O)c1nnn(-c2cccc(Cl)c2)c1C | 3 | 1
Cc1cc(C(C#N)c2nc3ccccc3o2)nc(N2CCOCC2)n1 (centres undefined) | 1 | 1
CCCCOC(=O)C1=C(C)N(C)C(=O)NC1c1ccccc1[N+](=O)[O-] (centres undefined) | 2 | -2
COc1cc(CSc2c(C(C)C)cnc3c2c(=O)n(C)c(=O)n3C)cc(OC)c1 | 10 | 16
COCCCN(CC(=O)N(CCc1ccccc1)Cc1ccc(C)o1)Cc1ccc(C#N)cc1 | -4 | -2
CCCCCCCC(=O)N(CCCOC)CC(=O)N(CCc1ccc(OC)c(OC)c1)Cc1ccco1 | 0 | -1
O=C(CC1CCc2ccccc21)NCCS(=O)(=O)N1CCCC1 (centres undefined) | -3 | -4
CN(C)c1nc(-c2cccnc2)nc2c1CCN(C(=O)C1CC=CCC1)C2 (centres undefined) | 9 | 2
Cc1cc(S(=O)(=O)N2CCCN(Cc3cc(=O)c(OCc4ccc(C(C)(C)C)cc4)co3)CC2)c(C)cc1Cl | 18 | 14
O=C(CN1CCN(S(=O)(=O)c2ccccc2Cl)CC1)Nc1ccc(N2CCCC2)cc1 | 1 | 7
COc1cccc(C(CN2CCN(S(=O)(=O)c3cc(Cl)sc3Cl)CC2)OCc2ccc(C#N)cc2)c1 (centres undefined) | -1 | 9
CC1(C(=O)NS(=O)(=O)c2cccs2)CCN1C(=O)C1(c2ccc(Cl)cc2)CCC1 (centres undefined) | -1 | -3
CC(=O)NC(C(=O)N(C)c1nccs1)C(C)C (centres undefined) | 0 | -2
Cc1ncsc1CCC(=O)N1CCCC(N(C)Cc2ccccc2)C1 (centres undefined) | 2 | 1
Cc1cccc(CN2CCN(Cc3ccc4occc4c3)CC2)c1 | 5 | 4
More entries
SMILES | NPYLR7 agonist | NPYLR7 agonist max-min
CCCNc1cc(C)nc2c(-c3ccccc3)c(C)nn12 | -3 | -5
CO[C@H]1CN(C(=O)c2ccc(Cl)cc2Cl)[C@@H]2Cc3c(n(C)c4ccccc34)[C@H]1C2 | 32 | 38
COc1cccc2c1OCC(C(=O)NC(C)(C)c1cn(-c3ccccc3)nn1)C2 (centres undefined) | 6 | 5
C=CCNC(=O)CC1C(=O)NCCN1Cc1ccc(-c2ccccc2)cc1 (centres undefined) | -9 | -11
O=C(c1cc2ccccc2s1)N1CC(=O)N2CCc3c(F)cccc3C2C1 (centres undefined) | 1 | 1
COC(=O)c1cc(OC)ccc1Oc1ccc(N)cn1 | 5 | 12
CCN(CC)c1c(C)nc2ccc(C(=O)NCc3ccc(N(C)C)cc3)cn12 | -5 | -9
Cc1nc(C)c(C(=O)NCCCn2nc(-c3ccncc3)ccc2=O)s1 | 28 | 22
Cc1nc2n(n1)C(=O)C(C(c1ccc(F)cc1)N1CCC(C)CC1)S2 (centres undefined) | -1 | -3
CCOC(=O)c1ccc(NC(=O)N2CCCC2C(=O)Nc2nnc(-c3cccc(OC)c3)s2)cc1 (centres undefined) | 0 | 7
CCOc1coc(C(=O)NCc2ccccc2Cl)cc1=O | 15 | 6
Cc1nc(-n2cnc3cc(C)c(C)cc32)c2c3c(sc2n1)CCC3 | 2 | 1
COC(=O)Nc1ccc(NC(=O)N2CCN(C(=O)c3cc(C)oc3C)CC2)cc1 | -2 | -4
CCN(C(=O)Cn1ccc(C(F)(F)F)n1)C(C)c1ccc(C#N)cc1 (centres undefined) | 1&-4 | 1&-9
CC(CCc1cccn1C)Nc1ccccc1S(C)(=O)=O (centres undefined) | 0 | -2

High-throughput results: PubChem, Fisher Drug Discovery Resource Center
